# Menin MLL FP FL – qHTS Assay for Inhibitors Targeting the Menin-MLL Interaction in MLL Related Leukemias: Competition With Fluorescein Labeled MLL-derived Peptide; Fluorescence polarization, fluorescein-MLL peptide displacement from menin; FP activity change, % at 61.4 µM; 290,000 tested, under 10 active; AID 1766, 2009; inconclusive = falling polarisation curve, or a change in total fluorescence; inactive = total fluorescence flat and polarisation flat or rising; no compound was filed as active; the % refers to the polarisation; negative = inhibition;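 further: % of control where 0% means no effect; inhibitors lower the polarisation; unlabelled MLL peptide was the positive control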
# ClpP mod – qHTS Assay for Activators of ClpP; ATP-dependent Clp protease proteolytic subunit (Bacillus subtilis (strain 168)), P80244; purified B. subtilis ClpP, FRET peptide cleavage, 20 min; Potency, µM (series often up to 57.5 µM), for inactives: at the highest dose activity change, negative = active; 340,000 compounds, 1.9% hits; AID 651965, 2013; active = well fitted falling curve with a large enough effect; inconclusive = small, poorly fitted or top-dose-only effect; inactive = no such curve, though single readings can be large or run the other way; further: potency means the concentration at half of the fitted maximal effect; the source files actives as falling curves though it sought activators and does not explain the sign; nearly all actives have a fitted effect of over 65% in size; many hits overshoot -100%
# Target sequence (P80244 whole entry, looked up): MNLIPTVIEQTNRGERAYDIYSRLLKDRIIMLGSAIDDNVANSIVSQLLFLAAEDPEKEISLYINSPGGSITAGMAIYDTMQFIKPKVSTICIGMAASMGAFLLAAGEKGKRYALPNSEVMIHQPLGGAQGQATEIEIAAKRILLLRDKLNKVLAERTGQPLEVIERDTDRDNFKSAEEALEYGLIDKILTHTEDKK
#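 Purified B. subtilis ClpP, 10 microg/mL final in Tris/HCl pH8 with KCl, BSA, glycerol and Tween-20, cleaved an Abz/nitrotyrosine-quenched decapeptide. Fluorescence (ex 320, em 430) was read at 0 and 20 min at room temperature. Delta was normalized to 5.8 microM ADEP and DMSO/no-enzyme controls.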
# TRPV1 potentiator – HTS Assay for Compounds that Act as Potentiators of the Vanilloid Receptor 1; 320,000 compounds, 0.02% hits; potentiation, % at 8.33 µM; Transient receptor potential cation channel subfamily V member 1 (Homo sapiens), Q8NER1; TRPV1-expressing cells, Fluo-8 calcium influx, capsaicin EC20 potentiation; host cell line not named in the record; control for the full effect not named in the record; active means potentiation above 80%; inconclusive means 30% to 80%; inactive means below 30%; further: 0% is about no effect
# Target sequence (Q8NER1 whole entry, looked up): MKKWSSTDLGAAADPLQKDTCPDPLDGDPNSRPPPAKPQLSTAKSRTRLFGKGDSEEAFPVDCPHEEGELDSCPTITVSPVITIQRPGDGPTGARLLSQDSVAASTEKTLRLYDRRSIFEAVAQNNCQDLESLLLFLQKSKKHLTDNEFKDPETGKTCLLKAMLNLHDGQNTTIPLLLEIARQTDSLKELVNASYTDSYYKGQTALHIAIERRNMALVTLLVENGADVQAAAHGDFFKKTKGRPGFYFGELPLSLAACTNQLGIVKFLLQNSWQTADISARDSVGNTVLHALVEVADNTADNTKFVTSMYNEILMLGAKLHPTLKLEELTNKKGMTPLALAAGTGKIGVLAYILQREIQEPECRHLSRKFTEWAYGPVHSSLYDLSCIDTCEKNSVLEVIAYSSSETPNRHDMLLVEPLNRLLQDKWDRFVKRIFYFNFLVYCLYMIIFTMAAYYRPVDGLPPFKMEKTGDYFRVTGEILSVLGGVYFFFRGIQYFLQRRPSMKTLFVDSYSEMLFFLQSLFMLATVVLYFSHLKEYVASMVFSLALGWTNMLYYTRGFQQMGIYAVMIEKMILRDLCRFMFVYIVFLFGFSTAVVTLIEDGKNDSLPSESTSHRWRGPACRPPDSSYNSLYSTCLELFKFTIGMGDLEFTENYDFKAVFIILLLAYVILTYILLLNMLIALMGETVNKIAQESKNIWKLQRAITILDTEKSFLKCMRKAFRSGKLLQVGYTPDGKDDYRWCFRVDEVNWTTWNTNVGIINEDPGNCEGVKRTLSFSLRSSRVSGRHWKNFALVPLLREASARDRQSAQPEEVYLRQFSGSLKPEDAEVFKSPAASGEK
#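 TRPV1-expressing cells were cultured overnight at 35.5C and loaded with Fluo-8 calcium dye for 40 to 90 min at room temperature. After a 10 s baseline, compound was added and calcium influx was read kinetically for 3 min (ex 480/em 520 nm).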
# TRPML1 ag – qHTS for Agonists of the Human Mucolipin Transient Receptor Potential 1 (TRPML1). TRPML1-expressing cells, Ca2+ dye fluorescence, FDSS; host cell line not named in the record; reference of the full effect not given here. activation, % (test concentration not listed). 410,000 compounds, 0.12% hits. Mucolipin-1 (Homo sapiens), Q9GZU1; in the data active = activation above about 50%; inconclusive = about 30% to 50%; inactive = below about 30%; further: 0% is about no effect; the text of the record puts the active cut at 80%
#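 Agonist activity was taken from a 110 s kinetic Ca2+ dye read on the FDSS after pinning compounds onto TRPML1-DL cells. The cells were seeded at 1,500/well with Tet inducer, incubated about 16 h, then dye-loaded at room temperature.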
# Sfp PPTase inh – qHTS Assay for Inhibitors of Bacillus subtilis Sfp phosphopantetheinyl transferase (PPTase). 310,000 compounds, 3.5% hits. 4'-phosphopantetheinyl transferase ffp (Bacillus subtilis), Q9F4F7. Biochemical Sfp PPTase activity, qHTS. Potency, µM, for inactives: max response, negative = inhibition, most hits filed as inhibitors; active means well fitted inhibition curve with a large enough effect; inconclusive means small, poorly fitted or top-dose-only effect, or another doubt; inactive means no such curve, though single readings can be large or run the other way;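 further: the enzyme is Sfp with the accession as filed and its product quenches rhodamine fluorescence; potency means the concentration at half of the fitted maximal effect; 0% = enzyme reaction without inhibitor and -100% = no enzyme wells; top concentration of the series not given in the record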
#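 With Hepes-Na pH 7.6 buffer containing 10 mM MgCl2, Sfp (15 nM) modified BHQ-2-YbbR (12.5 uM) using rhodamine-CoA (5 uM). Two reads 30 minutes apart at 525/598 nm yielded each well's rate.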
# PINK1 expr mod – A Quantitative High throughput Screen to Identify Chemical Modulators of PINK1 Expression; AID 624263, 2012; 410,000 compounds, 0.2% hits; PINK1 immunofluorescence, high-content cytometry, 24 h; Potency, µM (top dose mostly 76.6 µM), for inactives: at the top dose activation (PINK1 increase), hits mostly activators; active = well fitted activation curve with a large enough effect; inconclusive = small, poorly fitted or top-dose-only effect; inactive = flat fitted curve, though single readings scatter; cell line not stated here;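 further: potency means the concentration at half of the fitted maximal effect; % of control where 0% means no effect; nearly all actives have a fitted effect of over 65% in size; a mitochondrial uncoupler was the plate control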
#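 PINK1 protein, normally rapidly degraded, was detected by immunofluorescence after 24 hour compound treatment of a stable cell line. Titration data (5 concentrations) came from laser-scanning cytometry, with CCCP-treated wells as controls.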
# TRPML1 blocker – qHTS for Inhibitors of the Human Mucolipin Transient Receptor Potential 1 (TRPML1). Mucolipin-1 (Homo sapiens), Q9GZU1. TRPML1-inducible cells, Ca2+ dye fluorescence, FDSS; active compounds read low; inhibition of EC80 agonist-evoked calcium signal. activity change, negative = inhibition, % (test concentration not listed). 390,000 compounds, 0.02% hits. AID 624415, 2012; in the data active means activity change below about -50%; inconclusive means about -30% to -50%; inactive means above about -30%;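 further: stimulus is agonist 54-4 at its EC80 concentration; on the % scale 0 is the no-effect control and ±100 the full control effect; compound concentration not given in the record; the text of the record puts the active cut at -80%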
#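 Tet-induced TRPML1-DL cells loaded with Ca8 no-wash calcium dye were read kinetically on FDSS. Compound addition was followed by EC80 agonist 54-4 (4 uM final); inhibition was read over 110 s.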
# * marks the source's active call; other numbers are inactive results; ? = inconclusive; . = not tested or not shown; [ ] = remark or other dose.
structure,TRPML1 blocker,PINK1 expr mod,Menin MLL FP FL,ClpP mod,Sfp PPTase inh,TRPV1 potentiator,TRPML1 ag
CCC1(c2ccccc2)NC(=O)N(CC(=O)NNC(=O)COc2ccc(Cl)cc2C)C1=O (centres undefined),-24,2.7%,.,-14%,.,1,0.6
COC(=O)C1C(=O)C2=C(CC1C)NC(C)=C(C(=O)OC1CCCC1)C2c1ccc(N(C)C)cc1 (centres undefined),-10,-1.4%[38.3 µM],2.9,-4.1%,15%,8,-0.1
COc1ccccc1-c1cnn2c(NC3CCCC3)cc(C)nc12,35,6.7%,12,.,-5%,-5,3.1
CCn1c(=O)cc(SCC(=O)NCc2cccc(Cl)c2)c2ccccc21,15,4.0%,.,-18%,.,.,5.1
O=C(/C=C/c1ccccc1Cl)c1ccc[nH]1,50,-2.3%,1.1,-1.9%,14%,-7,3.4
CCc1cccc(CC)c1NC(=S)NCc1ccc2[nH]c(C)cc2c1,-4,?,-1.0,-0.9%,3%,7,-0.1
O=C(OCC(=O)N1CCN(C(=O)c2ccco2)CC1)c1cn(-c2ccccc2)nc1-c1ccccc1,-6,-0.6%,-2.2,1.6%,-2%,-10,-0.4
CN(C)C(CNc1ccc([N+](=O)[O-])cc1C#N)c1ccccc1 (centres undefined),10,-1.1%,-2.8,.,1%,-10,-0.2
COc1ccc(C2=NS(=O)(=O)N(C)C(C(=O)Nc3ccc(OC)c(OC)c3)=C2)cc1,13,-0.6%,-0.8,-0.4%,-11%,0,1.2
CCCn1cnc2c(oc3ccccc32)c1=O,-7,0.4%,5.3,-0.6%,12%,2,-1.0
N=c1c(C(=O)NCc2ccc3c(c2)OCO3)cc2c(=O)n3ccccc3nc2n1Cc1cccnc1,10,4.6%,0.9,-13%,9%,3,2.5
CC1=CC=CC2=NC(=O)CC(C)(C(=O)O)N12 (centres undefined),17,-0.2%,-3.0,?,19%,0,0.1

# Sorted by molar mass (high to low): some entries from above
structure,TRPML1 blocker,PINK1 expr mod,Menin MLL FP FL,ClpP mod,Sfp PPTase inh,TRPV1 potentiator,TRPML1 ag
CCn1c(=O)cc(SCC(=O)NCc2cccc(Cl)c2)c2ccccc21,15,4.0%,.,-18%,.,.,5.1
CN(C)C(CNc1ccc([N+](=O)[O-])cc1C#N)c1ccccc1 (centres undefined),10,-1.1%,-2.8,.,1%,-10,-0.2
CC1=CC=CC2=NC(=O)CC(C)(C(=O)O)N12 (centres undefined),17,-0.2%,-3.0,?,19%,0,0.1

# (continued)
structure,TRPML1 blocker,PINK1 expr mod,Menin MLL FP FL,ClpP mod,Sfp PPTase inh,TRPV1 potentiator,TRPML1 ag
O=C(CSCc1nc2ccccc2[nH]1)Nc1ccc2ccccc2c1,30,3.6%[38.3 µM],1.7,12%,15%,-17,0.2
CCOc1ccc2nc(NC(=O)c3ccoc3C)sc2c1,15,4.5%,5.0,-13%,89µM*,?,1.6
Cc1ccc(CNCC(=O)Nc2ccc(N3CCOCC3)cc2)cc1,17,-0.7%,8.2,.,?,.,0.0
O=C(Nc1ncn[nH]1)c1ccc(Cl)cc1Cl,26,0.2%,0.4,.,15%,12,-0.2
CCOC(=O)C1CCN(S(=O)(=O)c2ccc(OC)c(OC)c2)CC1,1,6.3%[38.3 µM],4.2,-0.4%,-8%,-3,0.2
O=C(C(=O)N1CCN(c2ccc(F)cc2)CC1)c1cn(CC(=O)N2CCOCC2)c2ccccc12,0,2.7%,.,1.3%,14%,0,0.2
N#CCSc1nc2[nH]ncc2c(=O)n1-c1ccccc1Br,-3,1.6%[38.3 µM],?,0.4%,?,28,-0.2
CC(C)(C)c1ccc(S(=O)(=O)/N=C2\C=C(NS(=O)(=O)c3ccccc3)C(=O)c3ccccc32)cc1,-2,4.5%,14,.,-9%,?,2.2
Cc1ccc(S(=O)(=O)CCC(=O)OCC(=O)NCC(=O)Nc2c(C)cc(C)cc2C)cc1,6,-4.1%,.,-4.2%,.,16,1.1
NS(=O)(=O)c1ccc(NC(=O)Nc2ccc(Cl)cc2)cc1,21,2.8%,-3.0,.,4%,1,-0.4
COc1ccc([C@H]2CC(=O)C=C(c3ccc(OC(F)(F)F)cc3)C2)cc1OC,14,2.1%,.,-0.3%,.,1,1.0
COc1cccc(/C=N/Nc2nc(C)cc(=O)[nH]2)c1OC,23,0.6%,0.2,.,56µM*,1,-0.8
COc1ccc(C2C(=O)N(C3CCCCC3)CC(=O)N2C2CCCC2)cc1 (centres undefined),1,3.9%[38.3 µM],1.6,-3.1%,12%,-26,0.4
COCCCNC(=O)c1sc2nc(C)c(C(=O)Nc3ccc(C)cc3C)c(-c3ccc(Cl)cc3)c2c1N,-10,3.2%,.,-0.8%,.,.,-1.2
CCCCC(=O)N/N=C(\C)c1cccc(NC(=O)C2CC2)c1,-6,-3.0%,-0.2,-1.3%,-8%,2,0.5
Cc1ccc2c(c1)N(CC(=O)NCCC1=CCCCC1)C(=O)c1cccnc1O2,-2,3.6%,-5.7,-0.7%,0%,-12,-0.1
Cc1ccc(NC(=O)CCc2nc3ccccc3s2)c(O)c1,-11,-0.5%,6.6,-2.8%,-7%,-7,3.8
COc1ccc(C(=O)NCCSc2ccccc2)cc1,10,2.0%,5.6,1.1%,3%,-24,-0.5
O=C(c1n[nH]c(=O)c2ccccc12)N1CCN(C2c3ccccc3-c3ccccc32)CC1,79,-4.5%,5.5,0.6%,-2%,4,1.3
Cc1cccc(NNC(=O)C2CCC2)c1,1,2.1%,-2.5,0.0%,17%,-2,-0.7
Cc1nn(CC(=O)Nc2ccccn2)c(C)c1[N+](=O)[O-],-1,6.7%[38.3 µM],-0.3,0.3%,-3%,-16,-0.2
O=C(COC(=O)c1ccc([N+](=O)[O-])o1)Nc1ccc(F)cc1,2,0.3%,.,-0.4%,.,.,-1.3
N/C(=N\OC(=O)Cc1ccccc1[N+](=O)[O-])c1cccnc1,-14,-0.6%,-1.5,.,17%,9,-0.4
CC1CN(C(=O)N2CCCCC2)CCN1C(=O)N1CCCCC1 (centres undefined),-3,0.1%,1.9,.,17%,21,0.0

# Among those listed so far, these have a furan ring, fused or not.
structure,TRPML1 blocker,PINK1 expr mod,Menin MLL FP FL,ClpP mod,Sfp PPTase inh,TRPV1 potentiator,TRPML1 ag
O=C(OCC(=O)N1CCN(C(=O)c2ccco2)CC1)c1cn(-c2ccccc2)nc1-c1ccccc1,-6,-0.6%,-2.2,1.6%,-2%,-10,-0.4
CCCn1cnc2c(oc3ccccc32)c1=O,-7,0.4%,5.3,-0.6%,12%,2,-1.0
CCOc1ccc2nc(NC(=O)c3ccoc3C)sc2c1,15,4.5%,5.0,-13%,89µM*,?,1.6
O=C(COC(=O)c1ccc([N+](=O)[O-])o1)Nc1ccc(F)cc1,2,0.3%,.,-0.4%,.,.,-1.3

# (cont.)
structure,TRPML1 blocker,PINK1 expr mod,Menin MLL FP FL,ClpP mod,Sfp PPTase inh,TRPV1 potentiator,TRPML1 ag
CC(C)(C)N/N=C/c1cc(Cl)cc([N+](=O)[O-])c1O,7,?,-2.0,0.4%,-10%,?,0.0
S=C(Nc1cccnc1)N1CCN(c2ccccc2Cl)CC1,-12,6.3%,-5.2,-2.2%,19%,-21,-1.0
Cc1noc(C)c1COc1ccccc1C(=O)NCCOc1ccccc1F,-11,1.5%,.,-0.1%,.,29,0.6
Cc1cc(N2CCN(C)CC2)nc2ccc(NC(=S)N3CCN(c4ccc(Cl)cc4)CC3)cc12,31,8.8%,-4.1,.,45µM*,15,0.7
CCN(CC(=O)Nc1ccccc1C(F)(F)F)C(=O)C1CSC2(C)CCC(=O)N12 (centres undefined),-1,-1.6%,.,.,.,-3,0.0
COc1ccc(N2CCN(C(CNC(=O)C(=O)NCc3ccc(C)cc3)c3cccnc3)CC2)cc1 (centres undefined),38,-1.8%,.,0.3%,.,.,0.9
Cn1c(CN2CCOCC2)nnc1SCc1ccccc1,-2,.,-1.1,0.7%,23%,-6,-0.1
CC(C)OCCCNC(=O)NC(=O)c1ccc(Cl)cc1,-17,2.5%,-7.8,0.6%,16%,-8,-0.1
Cc1ccc(CCNC(=O)C23CN(Cc4ccccc4)CC2C(c2cccc([N+](=O)[O-])c2)=NO3)cc1 (centres undefined),4,1.3%,-0.9,-1.5%,-10%,17,17
COc1ccc(C2/C(=C(/O)c3ccc4c(c3)CC(C)O4)C(=O)C(=O)N2Cc2ccncc2)cc1 (centres undefined),-11,-0.4%,-3.4,.,0%,17,-0.5
CCN(C(=O)CSc1nnnn1-c1ccc(OC)cc1)C1CCS(=O)(=O)C1 (centres undefined),0,1.2%,.,0.0%,.,.,0.2
Cc1ccc(C(=O)Nc2ccc(S(=O)(=O)N3CCc4ccccc4C3)cc2)o1,30,-4.0%[38.3 µM],-2.0,-11%,8%,13,4.8
COc1ccc(NC(=O)CNC(=O)Cc2cccc3ccccc23)c(OC)c1,1,0.3%,.,-0.4%,.,11,0.4
COc1cccc(/C=C/C(=O)N2CCN(S(=O)(=O)c3ccccc3)CC2)c1,-4,3.9%,.,4.8%,.,.,-0.5
COc1ccccc1N1CCN(C(=O)/C=C/c2ccccc2)CC1,8,-0.1%,2.8,-1.3%,6%,-7,-0.2
CNc1ccc(-c2cccc([N+](=O)[O-])c2)cn1,.,0.3%,.,-5.6%,.,.,-1.0
CCN(CC)c1nc2n(c(=O)n1)CCN2CC,2,-3.0%,0.1,0.9%,9%,?,0.5
Cc1cccc(NC(=O)c2cc(-c3ccc4c(c3)OCCO4)on2)c1,8,-0.3%,.,-14%,.,.,0.6

# Screens deposited in PubChem by National Center for Advancing Translational Sciences (NCATS).
